High-throughput results: PubChem BioAssay, National Center for Advancing Translational Sciences (NCATS)
2A StopGo: FMDV 2A StopGo reporter, luciferase signal | AID 1159524 | human cells with a luciferase reporter of 2A StopGo recoding; control for the full effect not named in the record | Potency, µM (top dose mostly 57.9 µM), without a hit: at the highest dose signal change, negative = less light | 410,000 tested, 1.2% active; active = well fitted falling curve with a large enough effect; inconclusive = small, poorly fitted or top-dose-only effect; inactive = no such curve, though single readings can be large or run the other way; tested in HEK293T cells; note: % is set by controls: 0 for no effect and ±100 for the full control effect; nearly all actives have a fitted effect of over 45% in size; luciferase light after 4 h
MARV entry inh: Marburg virus entry inhibition; 300,000 tested, 1.8% active; AID 540276; Marburg virus pseudotyped entry inhibition, cell reporter; control for the full effect not named in the record; about a third of the inactives were read at about 46 µM; Potency, µM (top dose mostly 37.8 µM), for inactives: at the top dose activity change, negative = inhibition, usual class: inhibitors; active = well fitted inhibition curve with a large enough effect; inconclusive = small, poorly fitted or top-dose-only effect, or effect the other way; inactive = flat fitted curve, though single readings scatter; tested in HEK293 cells; about a fifth of its hits are not listed in these tables; note: % is set by controls: 0 for no effect and ±100 for the full control effect; luciferase read-out
Lassa entry inh: inhibitors of Lassa virus binding or cell entry; Lassa virus pseudotype entry inhibition, cell reporter; control for the full effect not named in the record; Potency, µM (highest dose often 37.9 µM), for the others: at the top dose activity change, negative = inhibition, most hits filed as inhibitors; 300,000 tested, 1.2% active; active means well fitted inhibition curve with a large enough effect; inconclusive means small, poorly fitted or top-dose-only effect, or effect the other way; inactive means flat fitted curve, though single readings scatter; tested in HEK293 cells; note: % is set by controls: 0 for no effect and ±100 for the full control effect; nearly all actives have a fitted effect of over 50% in size; luciferase read-out
SARS PLP yeast: SARS-CoV PLP inhibition in yeast | 330,000 tested, 0.19% active | S. cerevisiae expressing SARS-CoV PLpro, growth rescue; control for the full effect not named in the record | AID 485353 | Potency, µM (doses to about 32.9 µM), for inactives: at the highest dose activity, positive = growth rescue; active means well fitted rising curve with a large enough effect; inconclusive means small, poorly fitted or top-dose-only effect; inactive means no such curve, though single readings can be large or run the other way; note: 0% is about no effect; nearly all actives have a fitted effect of over 55% in size; growth read by luminescence after 48 h
Cruzain inh Det: inhibitors of Trypanosoma cruzi cruzain with detergent; P25779; AID 1478; Potency, µM, without a hit: max response, negative = inhibition, actives largely listed as inhibitors; purified cruzain, Z-FR-AMC fluorescence, 0.01% Triton; 200,000 tested, 0.43% active;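 note: plate controls were neutral wells for no effect and buffer without enzyme for full effect; nearly all actives have a fitted effect of over 40% in size; top concentration of the series not given in the record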
Target sequence (P25779 123-467 limits assumed): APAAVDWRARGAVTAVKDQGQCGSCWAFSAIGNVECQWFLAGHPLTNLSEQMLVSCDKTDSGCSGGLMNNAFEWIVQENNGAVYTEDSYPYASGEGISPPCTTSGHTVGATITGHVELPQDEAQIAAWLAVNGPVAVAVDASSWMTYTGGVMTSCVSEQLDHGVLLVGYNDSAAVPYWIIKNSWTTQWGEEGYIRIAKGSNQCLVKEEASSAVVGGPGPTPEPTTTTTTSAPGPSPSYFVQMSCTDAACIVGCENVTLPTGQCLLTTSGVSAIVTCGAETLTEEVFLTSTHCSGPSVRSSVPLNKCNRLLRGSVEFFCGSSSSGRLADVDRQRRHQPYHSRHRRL
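Detergent-containing run (0.01% Triton X-100) in acetate buffer pH 5.5 with 5 mM DTT: enzyme at 1.5 nM final, 15 min compound preincubation at room temperature, then 2 uM Z-FR-AMC substrate. Activity taken as 60 s fluorescence increase at 360/450 nm.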
RE007 growth inh: less growth of the S. pombe RE007 Vpr strain; S. pombe RE007 Vpr strain, BacTiter-Glo ATP luminescence, 24 h; control for the full effect not named in the record; Potency, µM (doses to about 92.2 µM), for the others: top-dose activity change, negative = less growth; 360,000 tested, 0.21% active; AID 651644; active = well fitted falling curve with a large enough effect; inconclusive = small, poorly fitted or top-dose-only effect; inactive = no such curve, though single readings can be large or run the other way;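 note: % is set by controls: 0 for no effect and ±100 for the full control effect; nearly all actives have a fitted effect of over 50% in size; the assay follows cell death caused by Vpr and the record does not say whether a fall means rescue or toxicity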
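Fission yeast RE007 carrying one integrated HIV-1 vpr copy, seeded at OD 0.01 in PMG+AL medium with 23 nL pinned compound. Grown 24 h at 30 degrees; viability read by BacTiter-Glo luminescence after 5 min.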
NS1 inh: blocks influenza NS1 protein function; S. cerevisiae slowed by influenza A NS1, growth recovery by OD600; Potency, µM (doses to about 46.1 µM), without a hit: at the top dose activity, positive = more growth; 270,000 tested, 0.4% active; active means well fitted rising curve with a large enough effect; inconclusive means small, poorly fitted or top-dose-only effect; inactive means no such curve, though single readings can be large or run the other way; note: nearly all actives have a fitted effect of over 50% in size
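A cell-based growth assay was used: compounds that relieve NS1-induced slow growth of budding yeast raise OD600. Assay medium was yeast nitrogen base with ammonium sulphate and -URA supplement, pH 6.0, with 2% galactose.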
Cruzain inh noDet: cruzain (T. cruzi) inhibition without detergent; P25779; purified cruzain, Z-FR-AMC fluorescence, no detergent; Potency, µM, for inactives: max response, negative = inhibition, actives largely listed as inhibitors; 200,000 tested, 2.3% active;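 note: plate controls were enzyme without inhibitor for no effect and buffer without enzyme for full effect; nearly all actives have a fitted effect of over 40% in size; top concentration of the series not given in the record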
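Detergent-free condition (0.00005% Triton X-100) in acetate buffer pH 5.5 with DTT. 1.5 nM enzyme and compound were pre-mixed 15 min, then 2 uM Z-FR-AMC substrate added; reaction progress from fluorescence change between first and third reads (60 s).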
An asterisk follows results filed as active; ? = inconclusive; . = no result given; [ ] = dose if it differs, or a comment. Unless noted, calls come from the whole dose curve; as a rule, active = well fitted curve in the direction sought with a large enough effect; inconclusive = small, poorly fitted or top-dose-only effect, or another doubt; inactive = no such curve, though single readings can be large; an effect the other way counts as inactive or inconclusive. Potency is the fitted concentration of half-maximal effect. An unsorted share of the library. About 4.7% of those tested had a hit in this group.

Screens in order – MARV entry inh, RE007 growth inh, Lassa entry inh, Cruzain inh noDet, Cruzain inh Det, SARS PLP yeast, NS1 inh, 2A StopGo
CC(=O)NC1C(=O)Nc2c1cccc2C(F)(F)F (stereo not given)
 : 10%[46.1 µM], 10%, 2%, 7%, -4.8%, -7%, 7%, 1%
O=C1CC2c3ccccc3C1C1C(=O)N(CCc3ccccc3)C(=O)C21 (stereo not given)
 : ., 0%, ., ., ., 1%, -7%, -11%
CCCn1c(N)[n+](CC(=O)c2ccco2)c2ccccc21
 : ?, -9%, 15%, 3%, 5.5%, 5%, 3%, .
COc1ccc(S(=O)(=O)N2CCN(C(=O)c3cc(C)oc3C)CC2)cc1
 : -19%[46.1 µM], 12%, -10%, ., ., 1%, ., -20%
O=C(CN1C(=O)NC2(CCCc3ccccc32)C1=O)c1ccccc1F (stereo not given)
 : 17%, 33%, 4%, ., ., 23%, ., 27%
CC(=O)N(/N=C/c1ccc(C)cc1)c1nc(CCl)cs1
 : -2%[46.1 µM], 0%, ?, ., ., 0%, 21%, 9%
COc1cc2c(cc1OC)C(C)=NCC2
 : ., -21%, ., ., ., -3%, 8%, ?
CCN1CCN(c2ncnc3scc(-c4ccc(C)cc4)c23)CC1
 : ., -12%, ., ., ., -3%, -2%, -23%
CCOC(=O)C(Sc1n[nH]c(N)n1)c1ccccc1 (stereo not given)
 : 1%[46.1 µM], 4%, 11%, 7%, 7.3%, 6%, 6%, -9%
CCOc1ccc(S(=O)(=O)N=C(c2ccccc2)N2CCOCC2)cc1
 : 2%[46.1 µM], 20%, 0%[46.1 µM], ., ., -5%, ., -4%
CC(=O)Nc1ccc(NC(=O)C2CCN(C(=O)c3cccs3)CC2)cc1
 : ., 0%, ., ., ., 0%, 1%, 0%
CCNC(=O)NC(=O)C(C)Sc1nnc(COc2ccccc2Cl)o1 (stereo not given)
 : 18%, 3%, ?, -1%, -2.7%, ?, -131%, 11%
N/N=C(/Cc1nc2ccccc2[nH]1)c1ccc([N+](=O)[O-])cc1
 : -1%[46.1 µM], 13µM*, 10%, ., ., -10%, ., 15%
Cc1ccc(CNC(=O)CCC(=O)N2Cc3ccccc3Oc3ncccc32)cc1
 : ., ., 3%[46.1 µM], -3%, 0.0%, ., ., 13%
O=c1c2cc(N3CCOCC3)ccc2[nH]c(=S)n1CCCN1CCCCC1
 : -17%, 1%, 9%, -9%, -2.2%, 0%, 7%, -12%
CCOC(=O)c1cc(S(=O)(=O)N2CCOCC2)cn1C
 : ., 1%, ., ., ., 24%, -9%, -15%
CCOC(=O)c1cc(OC(=O)c2ccc(OC)cc2)n(-c2ccccc2)n1
 : ?, ., -8%[46.1 µM], 7%, -4.9%, ., ., 20%
COc1ccc(/C=C(/C#N)C(=O)Nc2ccccc2C)cc1C(=O)O
 : 7%, -3%, 9%, -9%, -2.0%, 2%, -5%, -14%
Cc1ccccc1Nc1ncnc2c1cnn2Cc1ccccc1
 : ., 3%, ., ., ., 0%, -9%, ?
Cc1cc(N)n(-c2ncnc3scc(-c4ccc(Cl)cc4)c23)n1
 : ?, -5%, -21%, -13%, -4.0%, -13%, 20%, -26%
O=C(C1CCN(c2ncnc3c2nc2n3CCCCC2)CC1)N1CCN(c2ccc(F)cc2)CC1
 : ., 31%, -11%[46.1 µM], ., ., -9%, 0%, 32µM*
COc1ccc(Cl)cc1NC(=O)c1sc2nc3c(cc2c1N)N1CCC3CC1
 : ., ., -11%[46.1 µM], -3%, 1.9%, ., ., -15%
Cn1nnc(NC(=O)CSc2ccc(Cl)cc2)n1
 : -5%[46.1 µM], -12%, -9%, -3%, 1.7%, -8%, 0%, -20%
Cc1ccc(CCNC(=O)c2cc3cc(S(=O)(=O)N4CCCCC4)ccc3n2C)cc1
 : ., ., ?, -7%, -1.6%, ., ., ?
Cc1cccc(CCN(CC(=O)NC2CCCCC2)C(=O)c2csnn2)c1
 : 5%[46.1 µM], 12%, -1%, ., ., 0%, -5%, -2%
Cc1nn2c(nc(N3CCOCC3)c3ccccc32)c1C=C(C#N)C#N
 : 22%, 0%, 17%, 10%, -9.8%, 12%, -6%, -25%
Cc1cccc(C(=O)Nc2cccc(OCc3cc(=O)n4cccc(C)c4n3)c2)c1
 : ., ., 4%[46.1 µM], 12%, 2.2%, ., ., -14%
CCn1c2ccccc2c2cc(NC(=O)c3ccccc3[N+](=O)[O-])ccc21
 : 4%, 1%, ?, ?, -8.7%, 28%, -1%, 6%
Cc1ccc2nc(SCc3nc(-c4ccc(Cl)cc4)no3)[nH]c2c1
 : ?, ., 0%[46.1 µM], -4%, -28%, ., ., -36%
O=C(O)c1cc(Cl)c2c(c1)[C@@H]1C=CC[C@@H]1[C@H](c1ccc(S(=O)(=O)N3CCOCC3)cc1)N2
 : ?, -4%, 10%, -7%, -5.8%, 27%, 14µM*, -10%

One compound at a time, from the list above:
Shown for CCOC(=O)C(Sc1n[nH]c(N)n1)c1ccccc1 (stereo not given) = MARV entry inh: 1%[46.1 µM]; RE007 growth inh: 4%; Lassa entry inh: 11%; Cruzain inh noDet: 7%; Cruzain inh Det: 7.3%; SARS PLP yeast: 6%; NS1 inh: 6%; 2A StopGo: -9%
Shown for CCn1c2ccccc2c2cc(NC(=O)c3ccccc3[N+](=O)[O-])ccc21 = MARV entry inh: 4%; RE007 growth inh: 1%; Lassa entry inh: ?; Cruzain inh noDet: ?; Cruzain inh Det: -8.7%; SARS PLP yeast: 28%; NS1 inh: -1%; 2A StopGo: 6%

Continuation:
Screens in order – MARV entry inh, RE007 growth inh, Lassa entry inh, Cruzain inh noDet, Cruzain inh Det, SARS PLP yeast, NS1 inh, 2A StopGo
COC(=O)c1sc2ccccc2c1NC(=O)c1ccc(S(=O)(=O)N2CCCCC2C)cc1 (stereo not given)
 : ?, -20%, -20%, 4%, -4.1%, 23%, 11%, ?
COc1ccc(-n2nc(C(=O)NCc3ccc(F)cc3)c3c4ccccc4n(C)c3c2=O)cc1
 : -4%[46.1 µM], ., 6%[46.1 µM], -6%, -0.5%, ., ., -14%
Cc1c(CCNC(=O)c2c(F)cccc2F)sc2nc(-c3ccc(F)cc3)nn12
 : ., ., 12%[46.1 µM], 1%, -0.4%, ., ., ?
O=C(c1noc2c1CCCC2)N1CCc2ccccc2C1
 : ?, -68%, ?, ., ., -22%, -9%, 50%[activator]
COc1ccc(-c2noc(N3CCC(C(=O)NCCCN4CCCCC4)CC3)n2)cc1
 : ., -2%, ., ., ., -3%, 0%, -13%
O=C(Cn1cc([N+](=O)[O-])cn1)Nc1nccs1
 : ., -10%, ., ., ., 1%, -3%, 8%
O=C(Cc1ccccc1)NCC(=O)Nc1ccccc1Br
 : 3%[46.1 µM], -2%, 3%, ., ., 1%, 6%, 23%
O=C(Nc1ccc2oc(=O)ccc2c1)c1ccc(-c2cccc(Cl)c2)o1
 : ., 9%, ., ., ., -1%, -2%, -17%
COc1ccc(CNC(=O)c2csnn2)cc1
 : -3%, -9%, -4%, -3%, 1.0%, 7%, -2%, 16%
COC(=O)[C@@H]1C[C@@]2(O)[C@@H](O)[C@@H](O)[C@@H](O)C[C@H]2N1C/C=C/c1ccccc1
 : ., 5%, ., -4%, 0.1%, 0%, -2%, -7%
O=C1CC(c2ccccc2)CC(O)=C1C=NCCc1ccccc1 (stereo not given)
 : 10%, 1%, -16%, ., ., -1%, -2%, 8%
CSc1ncccc1C(=O)OCn1nnc2ccccc2c1=O
 : ?, -23%, 1%, 5%, -7.4%, -3%, -56%, 12%
COc1ccc2c(-c3ccccc3)cc(SC(C)C(N)=O)nc2c1 (stereo not given)
 : ?, 0%, -18%, ., ., -2%, ., -22%
COc1ccc(/C(O)=C2/C(=O)C(=O)N(c3ccccn3)C2c2cccc(Cl)c2)cc1 (stereo not given)
 : ., 1%, ., ., ., 1%, -8%, -20%
Cc1cc(C)nc(N/N=C/c2c(CO)cnc(C)c2O)n1
 : ?, -15%, -18%[46.1 µM], ., ., 0%, 2%, 19%
Cn1c(Cl)c(/C=N/OC(=O)c2ccccc2Cl)c2ccccc21
 : -2%, -5%, ?, -13%, 1.9%, -5%, -3%, -7%
O=C1C=CC(=O)c2c(O)c(CO)c(CO)c(O)c21
 : ?, -25%, 3%, ., ., ., ., 35µM*
CC(C)[C@@H]1COC(c2cccc(C3=N[C@H](C(C)C)CO3)c2)=N1
 : ., 4%, ., ., ., -22%, -14%, 15%
CN(CCc1cnn(C)c1)Cc1nc(CC2CC2)no1
 : ., 0%, ., ., ., 1%, 9%, -2%
NS(=O)(=O)c1ccc(CCNC(=O)CNC(=O)COc2ccccc2)cc1
 : ., 5%, ., ., ., -1%, 3%, -1%
C=CCn1c(C(C)NC(=O)c2ccc(C)cc2)n[nH]c1=S (stereo not given)
 : 6%, -4%, ?, -11%, 0.1%, 17%, 4%, -2%
COc1cccc(NC(=O)CN2C(=O)NC(C)(CC(C)C)C2=O)c1 (stereo not given)
 : ?, 14%, -25%, ., ., 1%, ., -4%
COc1ccc(CC(=O)NNC(=O)c2cccnc2)cc1OC
 : ., 1%, ., ., ., 0%, 8%, 8%
COc1ccc(N2CCCC2=N)c(OC)c1
 : ., -2%, ., ., ., 0%, 0%, -8%
Cc1ccc(OCC(=O)Nc2ccc(N3CCN(S(C)(=O)=O)CC3)cc2)c(C)c1
 : ?, -5%, 19%[46.1 µM], ., ., 0%, -4%, -5%
O=C(CCc1nnc2n(Cc3ccccc3Cl)c(=O)c3ccccc3n12)Nc1ccccc1
 : -14%[46.1 µM], ., ., -3%, -0.5%, ., ., -4%
CCOC(=O)c1ccc(N2C(=O)CC(N3CCC(O)(c4ccc(Cl)cc4)CC3)C2=O)cc1 (stereo not given)
 : 4%[46.1 µM], ?, 7%, 18%, 1.3%, -36%, -41%, ?
